Source: PubChem BioAssay (National Center for Advancing Translational Sciences (NCATS))
VDR inhibitor: Inhibitors of the vitamin D receptor (VDR): qHTS | Vitamin D3 receptor (Homo sapiens), P11473 | VDR-SRC2-3 peptide fluorescence polarization, 2 h | Potency, µM, for inactives: max response, negative = inhibition, most hits filed as inhibitors | 400,000 tested, 0.93% active; active = well fitted inhibition curve with a large enough effect; inconclusive = small, poorly fitted or top-dose-only effect, or another doubt; inactive = no such curve, though single readings can be large or run the other way; note: series mostly up to about 120 µM
Target sequence (P11473 whole entry, looked up): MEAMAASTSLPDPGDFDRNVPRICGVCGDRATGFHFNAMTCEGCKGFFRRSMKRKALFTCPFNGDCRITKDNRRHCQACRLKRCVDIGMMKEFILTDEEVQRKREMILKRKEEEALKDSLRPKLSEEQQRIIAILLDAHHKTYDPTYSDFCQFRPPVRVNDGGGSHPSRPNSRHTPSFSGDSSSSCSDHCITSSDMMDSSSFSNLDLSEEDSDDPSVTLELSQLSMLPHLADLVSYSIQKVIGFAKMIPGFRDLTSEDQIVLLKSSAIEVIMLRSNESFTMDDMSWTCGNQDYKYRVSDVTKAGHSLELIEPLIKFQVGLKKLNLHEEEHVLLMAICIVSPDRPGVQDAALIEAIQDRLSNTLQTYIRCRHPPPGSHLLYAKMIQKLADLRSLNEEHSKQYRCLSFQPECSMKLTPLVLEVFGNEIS
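Inhibition of the VDR/SRC2-3 peptide interaction is quantified by fluorescence polarization. Compounds (23 nl, pintool) incubate with the reagents for 2 hours at ambient room temperature.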
* marks the source's active call; other numbers are inactive results; ? = inconclusive; [ ] = remark or other dose. % is set by controls: 0 for no effect and ±100 for the full control effect; potency is the fitted concentration of half-maximal effect. This is a subset (hit frequency here may not be typical).

SMILES	VDR inhibitor
Cc1cc(C)nc(-n2nc(C)cc2NC(=O)CN2CCc3ccccc3C2)n1	-6%
Cc1ccc(N2CC(C(=O)Nc3nccs3)CC2=O)cc1 (centres undefined)	-14%
CCCN1C(=O)/C(=N\OCC(=O)NCC(F)(F)F)c2ccccc21	-1%
CCOc1ccc(/C(O)=C2/C(=O)C(=O)N(c3ncccn3)C2c2ccccc2)cc1 (centres undefined)	-13%
CCc1nnc(NC(=O)CSc2nnc(-c3ccc(S(=O)(=O)N4CCCC4)cc3)n2CC)s1	-9%
O=S(=O)(c1ccc(NC(=S)NCc2ccco2)cc1)N1CCCC1	1%
COC(=O)Nc1ccc(S(=O)(=O)NCCO)cc1	-5%
Cc1cc(C)n(CC2CC(=O)N(c3ccc(Cl)c(Cl)c3)C2=O)n1 (centres undefined)	6%
Cc1ccc(NC(=O)C2CSC3(C)CCC(=O)N23)cc1S(=O)(=O)N1CCOCC1 (centres undefined)	-8%
Cc1ccccc1NC(=O)/C(=C/c1ccccc1)c1ccccc1	8%
CCSc1nnc2c(n1)OC(CC)N(C(C)=O)c1ccccc1-2 (centres undefined)	11%
CCc1ccc(NC(=O)COC(=O)CC2CCCC2)cc1	-1%
COc1ccc(CCNC(=O)CCCCC(=O)NCCc2ccc(OC)c(OC)c2)cc1OC	-6%
Cc1ccc(C)c(OCCC(=O)N2CCN(S(=O)(=O)c3cc(F)ccc3F)CC2)c1	2%
COc1ccc(OC)c(NC(=O)C2C(C(=O)O)C3(Cl)C(Cl)=C(Cl)C2(Cl)C3(Cl)Cl)c1 (centres undefined)	-11%

Two records picked at random from those above, as already listed:
SMILES	VDR inhibitor
COc1ccc(OC)c(NC(=O)C2C(C(=O)O)C3(Cl)C(Cl)=C(Cl)C2(Cl)C3(Cl)Cl)c1 (centres undefined)	-11%
COC(=O)Nc1ccc(S(=O)(=O)NCCO)cc1	-5%

5 compounds from above, sorted by SMILES length, rising:
SMILES	VDR inhibitor
CCCN1C(=O)/C(=N\OCC(=O)NCC(F)(F)F)c2ccccc21	-1%
COc1ccc(CCNC(=O)CCCCC(=O)NCCc2ccc(OC)c(OC)c2)cc1OC	-6%
CCOc1ccc(/C(O)=C2/C(=O)C(=O)N(c3ncccn3)C2c2ccccc2)cc1 (centres undefined)	-13%
CCc1nnc(NC(=O)CSc2nnc(-c3ccc(S(=O)(=O)N4CCCC4)cc3)n2CC)s1	-9%
COc1ccc(OC)c(NC(=O)C2C(C(=O)O)C3(Cl)C(Cl)=C(Cl)C2(Cl)C3(Cl)Cl)c1 (centres undefined)	-11%

Carrying on:
SMILES	VDR inhibitor
CC(C)CCN1CCC(n2nccc2NC(=O)c2ccc3c(c2)OCO3)CC1	-15%
CCCCCCC(C)NC(=S)Nc1cc(S(=O)(=O)N(C)C)ccc1C (centres undefined)	-15%
Cc1cc2c(cc1S(=O)(=O)NCc1ccccc1)n(C)c(=O)c(=O)n2C	-2%
C[C@@]12C(=O)Nc3cc(Cl)ccc3C(=O)N1[C@H]1c3ccccc3OC[C@@H]1[C@@H]2c1ccccc1	-10%
CCCOc1ccc(NC(=O)C2CC(=O)N(C)C(=Nc3cccc(OC)c3)S2)cc1 (centres undefined)	2%
COc1ccc(C(=O)NC2CC2)cc1OC1CCN(Cc2ccccc2)CC1	9%
CS(=O)(=O)N(Cc1ccc(Cl)cc1)c1ccc(C(=O)N2CCN(c3ccccc3)CC2)cc1	0%
Cc1ccccc1C(=O)N1CCC(C(=O)Nc2nccs2)CC1	10%
C=CCn1c(SCC(=O)c2ccc(O)c(O)c2)nnc1-c1cccnc1	0%
COc1ccccc1Cc1nc2ccccc2nc1SCC(=O)Nc1ccc2c(c1)OCO2	12%
CN1C(=O)/C(=C/c2ccc(O)c([N+](=O)[O-])c2)N(C)C1=S	5%
CC(=O)Oc1ccc(C(=O)[C@H]2[C@H]3C(=O)N(c4ccccc4)C(=O)[C@H]3[C@@H]3C=CC=NN32)cc1	-28%
C#CCNC(=O)C1=C[C@H](c2ccc(Br)cc2)C[C@H](OCCCCO)O1	-13%
O=C(OCCCOC(=O)c1ccc(Br)o1)c1ccc(Br)o1	-12%
NC(=O)C1CCN(C(=O)c2ccc(Oc3cc(Cl)cc(Cl)c3)o2)CC1	-21%

Rewritten as comma-separated lines: entries from further up.
Molecule,VDR inhibitor
Cc1ccccc1C(=O)N1CCC(C(=O)Nc2nccs2)CC1,10%
C=CCn1c(SCC(=O)c2ccc(O)c(O)c2)nnc1-c1cccnc1,0%
COc1ccccc1Cc1nc2ccccc2nc1SCC(=O)Nc1ccc2c(c1)OCO2,12%
CN1C(=O)/C(=C/c2ccc(O)c([N+](=O)[O-])c2)N(C)C1=S,5%
CC(=O)Oc1ccc(C(=O)[C@H]2[C@H]3C(=O)N(c4ccccc4)C(=O)[C@H]3[C@@H]3C=CC=NN32)cc1,-28%
C#CCNC(=O)C1=C[C@H](c2ccc(Br)cc2)C[C@H](OCCCCO)O1,-13%

The results go on.
SMILES	VDR inhibitor
Cc1cccc(C(=O)N=c2sccn2C)c1[N+](=O)[O-]	-5%
COc1ccccc1OCCNC(=O)Cc1ccc(Cl)c(Cl)c1	6%
CC(C)c1nc2sc3c(c2c(=O)[nH]1)CC(C)(C)OC3	10%
NC(=O)CCCn1c(C(=O)c2cc(Cl)c(N)c(Cl)c2)c2ccc([N+](=O)[O-])cc2[n+]1[O-]	-13%
COc1ccc(C(C(=O)NC2CCCCC2)N(C(=O)c2ccccn2)c2cccnc2)c(OC)c1 (centres undefined)	1%
O=C(NCC(=O)N(c1cccc(F)c1)C(C(=O)NC1CCCC1)c1cccnc1)c1cccs1 (centres undefined)	-12%
CCN1C(=O)C(Cc2nc3ccccc3c(=O)n2-c2ccccc2)c2cc(Br)ccc21 (centres undefined)	-9%
COc1ccc(-c2c(NC(=O)c3ccco3)n(-c3ccc(C)cc3)nc(C)c2=O)cc1	-28%
Nn1c(SCc2ccc(Br)cc2)nnc1-c1ccccn1	-10%
CN(C)C(=O)COc1ccc2c(-c3ccccc3)cc(=O)oc2c1	-2%
COc1ccc(CC(=O)Nc2ccc(-c3nc4ccccc4s3)cc2Cl)cc1	16%
CC(=O)N1CCCc2cc(S(=O)(=O)N(C)CC(=O)Nc3ccc(Cl)cc3C)ccc21	-2%
O=c1[nH]c(CCl)nc2cc(-c3ccc(Cl)cc3)sc12	-8%
CCOC(=O)c1cccc(NC(=O)CN(C)S(=O)(=O)c2cnc[nH]2)c1	-6%
O=C(C[C@H]1C/C=C\CCCC(=O)OC[C@H]2CCCN2C1=O)NCCO	-9%

The final two records of the part above are carried over, then new ones follow.
SMILES	VDR inhibitor
CCOC(=O)c1cccc(NC(=O)CN(C)S(=O)(=O)c2cnc[nH]2)c1	-6%
O=C(C[C@H]1C/C=C\CCCC(=O)OC[C@H]2CCCN2C1=O)NCCO	-9%
Cc1cc(C)c2c(C)[nH]nc2n1	-10%
COc1cccc(CN2CC(C(=O)NCCN3CCOCC3)CCC2=O)c1 (centres undefined)	-4%
COc1ccc(CCN2C(=O)N(c3ccc(F)cc3)C(=O)C2CC(=O)Nc2ccc(OC)cc2)cc1 (centres undefined)	-5%
CCOC(=O)c1c(NC(=S)Nc2cccc(C)c2)sc2c1CC(C)(C)SC2	?
CCCCN(C)C(=O)c1ccc2c(c1)N(Cc1cccc(Cl)c1)C(=O)c1ccccc1S2=O (centres undefined)	1%
Cc1onc(-c2ccccc2Cl)c1C(=O)Oc1cc(N)n(S(=O)(=O)c2ccc(F)cc2)n1	7%
COc1ccc(CCNc2cc(C)[nH]c(=O)c2)cc1OC	18%
CCOc1ccc(CC(=O)N/N=C/c2cccnc2)cc1	-5%
O=C(OCC(=O)N1CCc2ccccc21)c1cccnc1Cl	5%
O=C1CN(C(=O)c2ccc(Br)o2)C(c2ccccc2)c2cc(Br)ccc2N1 (centres undefined)	-27%
CN(C)c1ccc(N2C(=NC(=O)c3ccccc3)SC3CS(=O)(=O)CC32)cc1 (centres undefined)	3%
Cc1ccc(NC(=O)c2ccc(CSc3nnc(-c4ccncc4)n3C)cc2)c(C)c1	-13%
CCN(CC)S(=O)(=O)c1cccc(C(=O)Nc2ccccc2)c1	-8%
CCCCN1CC(COCc2ccccc2)OCCS1(=O)=O (centres undefined)	-22%
CCOC(=O)c1c(/N=C/c2ccccc2O)sc2c1CCC2	-7%
O=C(Nc1ccc(S(=O)(=O)Nc2nccs2)cc1)C1=NN(c2ccccc2)C(=O)CC1	-8%
N=C(N)N=Nc1c(O)[nH]c2ccc(Br)cc12	18%
C=CC(=O)Nc1ccc(Nc2ccnc(Nc3ccc(N4CCN(C)CC4)cc3)n2)cc1	34%[activator]
COc1ccc(C(=O)C2CCCCC2=O)cc1 (centres undefined)	-4%
CCCc1cc(=O)[nH]c(SCC(=O)N2CC3(C)CC2CC(C)(C)C3)n1 (centres undefined)	-9%
COc1cc(OC)c(NC(=O)c2cncn2-c2ccc(F)cc2)cc1Cl	25%
Cc1ccc(-c2ccc(=O)n(CC(=O)NCCN3CCCCC3C)n2)cc1 (centres undefined)	6%
CCN1CCN(Cc2c(O)ccc3oc(C)c(C(=O)Nc4cccc(C(F)(F)F)c4)c23)CC1	22%
O=C(NCc1cccnc1)C1CCN(S(=O)(=O)c2cc([N+](=O)[O-])ccc2Cl)CC1	-2%
CCCN1CCc2c(sc(NC(=O)C3CCN(S(=O)(=O)c4cccs4)CC3)c2C(N)=O)C1	0%
O=C(CCN=C1NS(=O)(=O)c2ccccc21)N1CCc2ccccc2C1	-15%
CC1(C)Cc2c(cnn2-c2ccccc2)C(NC(=O)CCN2CCCCO2)C1 (centres undefined)	17%
CCOC(=O)c1ccc(N2C(=O)c3n[nH]c(-c4cccs4)c3C2c2cccc(F)c2)cc1 (centres undefined)	?
COc1ccc(C(=O)NC(C)c2nnc(SCc3ccc(Cl)c(Cl)c3)n2C)cc1 (centres undefined)	-11%
COc1ccc(CCNC(=O)COc2cc(C)cc3oc(=O)cc(C)c23)cc1	-22%
CC1(c2ccccc2)NC(=O)N(CC(=O)NNC(=O)c2ccccc2)C1=O (centres undefined)	-7%
Cc1ccc(C)c2[nH]c(=O)c(CN(Cc3ccco3)S(=O)(=O)c3ccc4c(c3)OCCO4)cc12	6%
COc1ccc(C)cc1NC(=O)C1CCN(C(=O)C2CC(=O)N(c3ccc(C)cc3)C2)CC1 (centres undefined)	13%
N=C1/C(=C/c2cccn2Cc2ccc(F)cc2)C(=O)N=C2SC=CN12	7%
COc1ccccc1Cc1nc2ccccc2nc1SCC(=O)N1CCCc2ccccc21	19%
O=C(Nc1ccccc1C(F)(F)F)c1cnccn1	-24%
CC1(C)CC(=O)c2sc(NS(=O)(=O)c3ccc([N+](=O)[O-])cc3)nc2C1	-17%
COC(=O)C1=C(C(=O)OC)[C@@H]2Nc3ccccc3[C@@]23C[C@@H](C(=O)OC)N(C(=O)CC(C)C)C3=N1	-1%
O=C(Cc1cccs1)NCC1CCCO1 (centres undefined)	11%
O=C(CN(C(=O)CNS(=O)(=O)c1ccc(F)cc1)c1ccccc1F)NCc1ccco1	-1%
CC1=CCC2C(=O)N(c3ccc4ccccc4n3)C(=O)C2C1 (centres undefined)	-26%
C[C@H]1CN=C(N(C)C)N1CCCC1CCCCC1	-4%
CN(C)c1ncc2nc(-c3cccs3)c(=O)n(C)c2n1	-1%
N#Cc1cnn(-c2nc3sc4c(c3c(=O)[nH]2)CCCC4)c1N	19%
Cc1ccnc(NC(=O)c2ccc(OCc3c(C)noc3C)cc2)c1	9%
CCCCC(O)(c1ccc(F)cc1)C(CN1CCOCC1)c1ccc(Cl)cc1 (centres undefined)	8%
Cn1c(=O)[nH]c(=O)c2c1nc(Sc1ncccn1)n2CCCc1ccccc1	10%
Nn1c(SCCOc2ccccc2)nnc1-c1cccnc1	-11%
COc1ccc(N2CCN(C(=O)c3ccc4c(c3)N(Cc3ccc(F)cc3)C(=O)c3ccccc3S4=O)CC2)cc1 (centres undefined)	-8%
O=C(/C=C/c1ccc2c(c1)OCCO2)c1ccccc1	50µM*
CCOC(=O)C1CCCCN1Cc1cccc(F)c1 (centres undefined)	-7%
Cc1ccc2nc(-c3c[nH]c4ccccc34)c(Nc3ccccc3)n2c1	-11%
O=C(CN1C(=O)C2CC=CCC2C1=O)Nc1ccc(Br)cc1 (centres undefined)	0%
CC1CCc2c(sc(NC(=O)C3CCCO3)c2C#N)C1 (centres undefined)	-24%
CCCCCn1c(CNC(C)=O)nc2ccccc21	31%[activator]
CCN(CCCn1c(SCC#N)nc2ccccc2c1=O)c1ccccc1	-9%
O=C(Nc1cc(Cl)ccc1O)C1CC(c2ccccc2O)=NO1 (centres undefined)	?
CCCSc1ncc(Cl)c(C(=O)Nc2ccc(S(=O)(=O)N3CCC(C)CC3)cc2)n1	16%
COCCCNC(=O)Cn1cnc2sc(C)c(S(=O)(=O)N3CC(C)CC(C)C3)c2c1=O (centres undefined)	-8%
Cc1ccc(N2CC(C)Cn3c2nc2c3c(=O)[nH]c(=O)n2C)cc1C (centres undefined)	-13%
Additional results.
SMILES	VDR inhibitor
Cc1ccc(NC2=NC3(CCCCC3)N=C(N)N2)c(C)c1	12%
COc1ccc(OC)c(S(=O)(=O)NC2CC(=O)N(c3ccc(C)c(C)c3)C2)c1 (centres undefined)	-23%
CC1CCCC(C)N1C(=O)c1cc(-c2cccs2)on1 (centres undefined)	-4%
O=C(NCc1nnc(SCC(=O)N2CCCc3ccccc32)o1)c1ccco1	-10%
Cc1cc(NS(=O)(=O)c2ccc(NC(=O)COc3ccc(Cl)cc3)cc2)nc(C)n1	-13%
CCOC(=O)CC1=CCc2c1ccc(OC)c2OC	-2%
COc1cccc(C(=O)N2CCN(c3ccc(N4CCOCC4)nn3)CC2)c1	4%
Cc1ccc(-c2ccc(C3C4C=CCCC4(C)C(=O)N3Cc3ccccc3)c(F)c2)cc1 (centres undefined)	-8%
C[C@@H]1COC(=O)[C@@H](Cc2ccc(F)cc2)C/C=C\C[C@@H](CC(=O)N[C@H](CO)Cc2ccccc2)C(=O)N1	-4%
CCOc1ccc(-c2nonc2NC(=O)COc2c(C)cc(C)cc2C)cc1OCC	10%
Cc1nc(C)c(-c2ccccc2)c(=O)[nH]1	-5%
